Assay outcomes as filed in PubChem BioAssay.
PrP 5UTR inh = inhibition of PrP 5' UTR reporter expression; cell-based PrP 5' UTR mRNA reporter, plate reader; inhibition, % (no concentration beside the values); 0.35% of 340,000 active;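 active = every replicate at 50% or more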;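 note: 0 = median of the neutral control wells; tested in H4 reporter cells; numbers are from one replicate; inactives centre near -14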
Sa RN4220 lethal = kills Staphylococcus aureus RN4220. 0.33% of 330,000 active. inhibition, % (concentration not given with the values). AID 1259311. S. aureus RN4220 growth, OD600, 16 h;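 active = z-score of -3 or lower and OD600 up to 0.18 on both plates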;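 note: plate controls were untreated cells for no effect and reference antibiotic for full effect; stock transfer was 100 nL into about 80 µL; one replicate is shown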
Mtb hypoxia inh = inhibitors of hypoxia-regulated fluorescent reporter in Mycobacterium tuberculosis; M. tuberculosis hypoxia-regulated fluorescent reporter, fluorescence; fluorescence inhibition, % (no concentration beside the values); 0.1% of 300,000 active;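 active = 35 to 45% if threefold the growth effect, above 45% if 1.5-fold the growth effect; inactive = the rest, general growth blockers included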;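 note: wells of about 50 µL received 100 nL stock; 0% = vehicle wells and 100% = reference inhibitor wells; whole bacteria with a GFP reporter of the hypoxia response; strong numbers were not always called active; many hits fall short of the cut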
Autofluor counter = counter-screen for toxin protease inhibitors: compound fluorescence. compound autofluorescence counterscreen, microsphere flow cytometry; active compounds read high. fluorescence intensity (test concentration not listed). 3.1% of 360,000 active;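 active = at least 3 SD above the mean of all compounds, about 16000 in these data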;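 note: 100 nL of 1 mM stock went into each well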
Sa ugtP lethal = compounds lethal to S. aureus RN4220 ugtP deletion mutant; OD600 growth, 16 h; some inactives read as strong as hits; growth inhibition, % (concentration not given with the values); 0.54% of 330,000 active;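 active = z-score under -3 and OD600 up to 0.15 on both plates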;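 note: plate controls were untreated wells for no effect and antibiotic for full effect; wells of about 80 µL received 100 nL stock; the first replicate is given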
BJeLR lethal = BJeLR cell viability loss; BJeLR (HRASV12) viability, CellTiter-Glo ATP luminescence, 48 h; reference of the scale not given here; inhibition, % (test concentration not listed); 0.17% of 300,000 active; AID 1554;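 active = replicate mean above 50%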;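 note: 50 nL library stock added to about 25 µL; numbers are from one replicate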
Mtb hypoxia inh growth = recorded beside Mtb hypoxia inh, whose call it bears; growth inhibition, %; measured here: M. tuberculosis growth (absorbance);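 0% = vehicle and 100% = reference antibiotic; read after six days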
* marks the source's active call; other numbers are inactive results; . = not tested or not shown. Random draw from the library; any-hit rate near 4%.

The first 13 records, ahead of the listing:
| no. | SMILES | Sa RN4220 lethal | Autofluor counter | PrP 5UTR inh | BJeLR lethal |
| --- | --- | --- | --- | --- | --- |
| 1 | O=[N+]([O-])c1ccc(N2CCN(S(=O)(=O)c3ccccc3[N+](=O)[O-])CC2)cc1N1CCc2ccccc2C1 | . | 9438 | -9 | -6 |
| 2 | Cc1ccc(-c2nnc(SCC(=O)NNC(=O)COc3ccccc3C)n2C)cc1 | 2.2 | 2255 | -16 | -3 |
| 3 | CC(C)OCCCNC(=O)c1ccc(Br)cc1 | 4.2 | 15661 | -10 | -6 |
| 4 | O=C(Nc1cccnc1)c1ccc(Cl)c(S(=O)(=O)N2CCOCC2)c1 | 3.1 | 5758 | -15 | 6 |
| 5 | CCNS(=O)(=O)c1cc(OC)ccc1OC | 6.7 | 9621 | -37 | 7 |
| 6 | Cc1ccc(S(=O)(=O)c2nc(-c3ccccc3)oc2NCCN2CCOCC2)cc1 | -2.0 | 2420 | -8 | -8 |
| 7 | O=C(c1ccc(S(=O)(=O)c2ccccc2)cc1)N1CCCCCC1 | 3.3 | 2920 | -16 | -9 |
| 8 | COc1cccc(CC2(CO)CCCN(Cc3cnn(-c4ccccc4)c3)C2)c1 (configuration not stated) | 8.3 | 5388 | -18 | -7 |
| 9 | CCN(C(=O)COC(=O)C(C)(C)Oc1ccc(Cl)cc1)c1c(N)n(Cc2ccccc2)c(=O)[nH]c1=O | -4.6 | 3535 | -32 | . |
| 10 | COCCN(C(=O)CN1CCCc2ccccc21)c1c(N)n(Cc2ccccc2)c(=O)[nH]c1=O | 6.1 | 2778 | -12 | -6 |
| 11 | CNC(=S)NNC(=O)c1cccc(N(C)C)c1 | 7.1 | 3712 | -18 | 5 |
| 12 | Cn1cc(C(=O)c2ccc(Cl)cc2Cl)cc1C(=O)NN=C(N)COc1ccc(Cl)cc1Cl | -16 | . | . | . |
| 13 | Cc1ccc(NC(=O)c2ccc3c(c2)CCN3S(C)(=O)=O)cc1C | . | 4191 | -54 | 0 |

| no. | Mtb hypoxia inh | Sa ugtP lethal | Mtb hypoxia inh growth |
| --- | --- | --- | --- |
| 1 | . | . | . |
| 2 | -8 | 3 | -12 |
| 3 | . | 3 | . |
| 4 | 20 | -1 | 12 |
| 5 | 15 | -3 | 5 |
| 6 | . | 10 | . |
| 7 | 14 | 7 | 0 |
| 8 | 3 | 1 | 16 |
| 9 | 12 | 12 | 6 |
| 10 | 15 | 9 | 7 |
| 11 | 5 | 14 | 3 |
| 12 | 14 | -26 | 9 |
| 13 | . | . | . |

All compounds of this part, previewed entries included:
| no. | SMILES | Sa RN4220 lethal | Autofluor counter | PrP 5UTR inh | BJeLR lethal |
| --- | --- | --- | --- | --- | --- |
| 1 | O=[N+]([O-])c1ccc(N2CCN(S(=O)(=O)c3ccccc3[N+](=O)[O-])CC2)cc1N1CCc2ccccc2C1 | . | 9438 | -9 | -6 |
| 2 | Cc1ccc(-c2nnc(SCC(=O)NNC(=O)COc3ccccc3C)n2C)cc1 | 2.2 | 2255 | -16 | -3 |
| 3 | CC(C)OCCCNC(=O)c1ccc(Br)cc1 | 4.2 | 15661 | -10 | -6 |
| 4 | O=C(Nc1cccnc1)c1ccc(Cl)c(S(=O)(=O)N2CCOCC2)c1 | 3.1 | 5758 | -15 | 6 |
| 5 | CCNS(=O)(=O)c1cc(OC)ccc1OC | 6.7 | 9621 | -37 | 7 |
| 6 | Cc1ccc(S(=O)(=O)c2nc(-c3ccccc3)oc2NCCN2CCOCC2)cc1 | -2.0 | 2420 | -8 | -8 |
| 7 | O=C(c1ccc(S(=O)(=O)c2ccccc2)cc1)N1CCCCCC1 | 3.3 | 2920 | -16 | -9 |
| 8 | COc1cccc(CC2(CO)CCCN(Cc3cnn(-c4ccccc4)c3)C2)c1 (configuration not stated) | 8.3 | 5388 | -18 | -7 |
| 9 | CCN(C(=O)COC(=O)C(C)(C)Oc1ccc(Cl)cc1)c1c(N)n(Cc2ccccc2)c(=O)[nH]c1=O | -4.6 | 3535 | -32 | . |
| 10 | COCCN(C(=O)CN1CCCc2ccccc21)c1c(N)n(Cc2ccccc2)c(=O)[nH]c1=O | 6.1 | 2778 | -12 | -6 |
| 11 | CNC(=S)NNC(=O)c1cccc(N(C)C)c1 | 7.1 | 3712 | -18 | 5 |
| 12 | Cn1cc(C(=O)c2ccc(Cl)cc2Cl)cc1C(=O)NN=C(N)COc1ccc(Cl)cc1Cl | -16 | . | . | . |

| no. | Mtb hypoxia inh | Sa ugtP lethal | Mtb hypoxia inh growth |
| --- | --- | --- | --- |
| 1 | . | . | . |
| 2 | -8 | 3 | -12 |
| 3 | . | 3 | . |
| 4 | 20 | -1 | 12 |
| 5 | 15 | -3 | 5 |
| 6 | . | 10 | . |
| 7 | 14 | 7 | 0 |
| 8 | 3 | 1 | 16 |
| 9 | 12 | 12 | 6 |
| 10 | 15 | 9 | 7 |
| 11 | 5 | 14 | 3 |
| 12 | 14 | -26 | 9 |

Continuation.
| no. | SMILES | Sa RN4220 lethal | Autofluor counter | PrP 5UTR inh | BJeLR lethal |
| --- | --- | --- | --- | --- | --- |
| 13 | Cc1ccc(NC(=O)c2ccc3c(c2)CCN3S(C)(=O)=O)cc1C | . | 4191 | -54 | 0 |
| 14 | CC1=CC(C)(C)N(C(=O)CSc2nnc(N)s2)c2cc(C)c(C)cc21 | 4.2 | 23062* | -69 | -3 |
| 15 | COCCNCCCCOc1ccccc1-c1ccccc1 | 2.6 | 2295 | -34 | -12 |
| 16 | COc1cc2ccccc2cc1C(=O)N1CCCCC1 | 1.1 | . | -26 | -15 |
| 17 | COC(=O)C1=C(c2ccc(F)cc2OCc2ccccc2)C[C@@H]2CC[C@H]1N2C | -12 | 2903 | -6 | . |
| 18 | CN(Cc1cccc(F)c1)C(=O)C(c1ccccc1)c1ccccc1 | 4.2 | 3431 | -4 | 0 |
| 19 | O=C(O)/C=C/c1cccc(NC(=O)Nc2ccc([N+](=O)[O-])cc2)c1 | -1.3 | 3857 | -23 | -2 |
| 20 | COc1ccccc1N=CC1=C(O)CC(c2ccccc2)CC1=O (configuration not stated) | 4.1 | 2439 | -10 | -2 |
| 21 | COc1cc(C=Nc2c(C)cc(C)cc2C)ccc1OC(C)=O | 7.4 | 2457 | 0 | 7 |
| 22 | Cc1cc(C)n(-c2ncc(-c3ccccc3)nn2)n1 | 0.1 | 6062 | 6 | -2 |
| 23 | O=S(=O)(c1ccc2nc(Cc3ccccc3)[nH]c2c1)N1CCOCC1 | 4.2 | 7029 | -19 | -7 |
| 24 | CC(=NCCC1=CCCCC1)c1c(O)[nH]c(=O)[nH]c1=O | -1.0 | 3501 | -13 | 0 |

| no. | Mtb hypoxia inh | Sa ugtP lethal | Mtb hypoxia inh growth |
| --- | --- | --- | --- |
| 13 | . | . | . |
| 14 | -2 | 13 | 5 |
| 15 | 18 | 6 | 12 |
| 16 | 1 | 4 | -1 |
| 17 | 2 | -3 | 8 |
| 18 | 4 | 18 | 8 |
| 19 | -4 | -5 | -2 |
| 20 | 11 | 7 | 3 |
| 21 | 4 | 7 | -2 |
| 22 | . | 7 | . |
| 23 | 1 | 9 | -1 |
| 24 | 13 | -3 | 13 |

(more compounds)
| no. | SMILES | Sa RN4220 lethal | Autofluor counter | PrP 5UTR inh | BJeLR lethal |
| --- | --- | --- | --- | --- | --- |
| 25 | O=c1cnnc(NN=Cc2c[nH]c3ccccc23)[nH]1 | 8.4 | . | . | . |
| 26 | CC(=O)c1sc(Nc2ccccn2)nc1C | 2.2 | 4429 | -18 | 2 |
| 27 | COc1ccc(CNC(=O)CSCc2ccccc2Cl)cc1 | -1.0 | 1964 | -23 | 1 |
| 28 | O=C1CC(c2ccc(O)c(O)c2)Oc2cc(O)cc(O)c21 (configuration not stated) | 1.6 | 4065 | -2 | -6 |
| 29 | CC(=O)Nc1cccc(CP(=O)(c2ccccc2)c2ccccc2)c1 | 1.6 | 4451 | 2 | -9 |
| 30 | CCCCN(C1CCS(=O)(=O)C1)S(=O)(=O)c1cccs1 (configuration not stated) | 2.6 | 6333 | -20 | 6 |
| 31 | Cc1ccc(OCCNC(=O)c2cccc(C)c2)cc1 | 4.6 | . | -7 | -8 |
| 32 | NS(=O)(=O)c1cccc(NC(=O)Nc2ccc(Cl)cc2)c1 | -1.2 | 5840 | -9 | -5 |
| 33 | O=C(CC(=O)c1cccnc1)c1ccccc1 | 1.5 | 3804 | -6 | . |
| 34 | CCC(C)N1C(=O)NC(=O)C2(Cc3cc(C)ccc3N(C)C2)C1=O (configuration not stated) | 3.7 | 8534 | -17 | -7 |
| 35 | Cc1cc(Cl)ccc1NNC(=O)c1snnc1C | 3.3 | 3890 | -23 | -1 |
| 36 | Cc1occc(=O)c1OCc1ccc(Cl)cc1Cl | -1.9 | 2785 | -17 | 4 |
| 37 | COc1ccc(CN2CCN(Cc3ccccc3F)CC2)cc1 | -0.6 | 3768 | -7 | 6 |
| 38 | COc1ccc(-c2cc(-c3ccccc3)nc(SC(C)C(=O)O)c2C#N)cc1 (configuration not stated) | 13 | 4074 | -27 | -9 |

| no. | Mtb hypoxia inh | Sa ugtP lethal | Mtb hypoxia inh growth |
| --- | --- | --- | --- |
| 25 | 10 | 8 | 1 |
| 26 | . | 1 | . |
| 27 | 14 | 13 | 6 |
| 28 | . | 1 | . |
| 29 | 12 | 8 | 3 |
| 30 | 10 | -1 | 1 |
| 31 | 4 | 6 | 0 |
| 32 | -2 | -19 | 0 |
| 33 | -3 | -6 | 1 |
| 34 | -1 | 1 | 2 |
| 35 | 1 | 1 | -1 |
| 36 | 1 | 4 | -7 |
| 37 | 2 | 9 | 1 |
| 38 | -3 | 16 | -13 |
